Screening data as filed in PubChem.
Mtb H37Rv = Mycobacterium tuberculosis H37Rv growth inhibition, cell based, confirmatory dose response (AID 1949). hit rate 1.6% among 100,000. one-dose inhibition, % at 10 µg/mL; IC50 in µg/mL for titrated hits. most inactive calls were filed without a number and no value below 0 was filed;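 active = confirmed in a dose series; inconclusive = about 50% or more but not retested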;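 also: bacteria grown 7 days with compound before Alamar blue readout; 0% = untreated bacteria and 100% = reference antibiotic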
The depositor's hits bear a star; i = inactive; ? = inconclusive.

nr	SMILES	Mtb H37Rv
1	CCOC(=O)c1c(-c2ccc(OC)c(OC)c2)csc1NC(=O)c1ccncc1	i
2	Cc1nn(-c2cc(N3CCN(C(=O)C(C)(C)C)CC3)ccc2[N+](=O)[O-])c(=O)c2ccccc12	i
3	Cc1cccnc1NC(=O)Nc1cccc2ccccc12	i
4	COC(=O)c1c(NC(=O)C2(C)CC2(Cl)Cl)sc2c1CCC2 (stereo not drawn)	3%
5	CCOC(=O)CCc1c(C)c2ccc(OCc3ccccc3OC)c(C)c2oc1=O	2%
6	Cc1cc(C)nc(SCC(=O)C(C)(C)C)n1	i
7	Cc1ccc(OCc2nc(-c3ccncc3)no2)cc1	3%
8	O=C(Oc1ccc(F)cc1)c1ccco1	5%
9	Cc1oc(C(C)(C)C)cc1C(=O)NCCNC(=O)c1cc(C(C)(C)C)oc1C	i
10	COC(=O)C1=CN(CCc2ccc(OC)cc2)C=C(C(=O)OC)C1c1cccc(F)c1	i
11	COc1ccc(NC(=O)C2CCN(S(=O)(=O)c3cc(Cl)ccc3Cl)CC2)c(OC)c1	i
12	CSc1ccc(S(=O)(=O)N(CC(=O)Nc2cccc([N+](=O)[O-])c2)c2ccc(C)cc2)cc1	i
13	O=C(O)C1CC=C(Cl)CC1C(=O)Nc1ccn[nH]1 (stereo not drawn)	i
14	COc1ccc(S(=O)(=O)NCCSC2CCCCC2)cc1Br	i
15	N/C(=N\OC(=O)CCC1CCCC1)c1ccncc1	i

Random excerpt: 4 compounds from above, in no set order.
nr	SMILES	Mtb H37Rv
8	O=C(Oc1ccc(F)cc1)c1ccco1	5%
11	COc1ccc(NC(=O)C2CCN(S(=O)(=O)c3cc(Cl)ccc3Cl)CC2)c(OC)c1	i
15	N/C(=N\OC(=O)CCC1CCCC1)c1ccncc1	i
10	COC(=O)C1=CN(CCc2ccc(OC)cc2)C=C(C(=O)OC)C1c1cccc(F)c1	i

More structures
nr	SMILES	Mtb H37Rv
16	COC(=O)c1cc(OC)c(OC)cc1NC(=O)COc1ccccc1	1%
17	COC(=O)c1sccc1NC(=S)NCc1ccc(Cl)cc1	2%
18	COc1cc(OC)c(C(=O)Nc2ccc(Cl)cc2)cc1OC	i
19	COc1ccc(C(=O)Nc2nncs2)cc1[N+](=O)[O-]	3%
20	COc1ccc(-c2nc3cc(NC(=O)COc4cc(C)cc(C)c4)ccc3o2)cc1	i
21	CCOC(=O)c1ccc(NC(=O)CSc2nnc(-c3ccc(C)cc3)n2C)cc1	i
22	CCOC(=O)COc1ccc(C2NC(=S)NC(C)=C2C(=O)Nc2ccccc2)cc1OCC (stereo not drawn)	i
23	CCOc1cc(S(=O)(=O)N(C)C)ccc1Cl	i
24	O=C(Cc1ccccc1)NCC(=O)OCc1ccc(Br)cc1	i
25	CCOC(=O)Cc1csc(NS(=O)(=O)c2ccc(SC)cc2)n1	i
26	CCc1cccc(OCC(=O)Nc2cc([N+](=O)[O-])ccc2C)c1	i
27	COC(=O)c1cc(Cl)c2ccccc2c1O	i
28	O=C1CC(c2nc3ccccc3n2Cc2cccc3ccccc23)CN1c1ccccc1 (stereo not drawn)	14%
29	COc1ccc(Cn2c(-c3ccc(OC)cc3)n[nH]c2=S)cc1	i
30	COc1cc(S(=O)(=O)Nc2ccccc2C)ccc1Cl	i
31	COC(=O)c1cc(=O)[nH]c2ccc(C)cc12	i
32	CCOC(=O)c1cc(C)sc1NC(=O)C1CCC1	3%
33	COc1ccccc1NS(=O)(=O)c1ccc(Cl)c(C(F)(F)F)c1	i
34	COc1ccc(C2CC(=O)C3=C(C2)Nc2ccccc2NC3c2ccc([N+](=O)[O-])o2)cc1 (stereo not drawn)	7%
35	COc1ccc(C(=O)c2c(C)oc3ccc(O)cc23)c(OC)c1	i
36	CC(=O)c1ccccc1OC(=O)COc1ccc(Br)cc1Cl	0%
37	Cc1ccccc1OCCSc1nnc(C)n1-c1ccccc1	i
38	CCOc1ccc(NC(=O)CC2C(=O)N(c3ccc(F)cc3)C(=O)N2Cc2ccc(OC)cc2)cc1 (stereo not drawn)	5%
39	COc1ccccc1-c1nnc(SCC(=O)Nc2ccc(F)c(Cl)c2)n1C	i
40	COc1ccc(OC)c(S(=O)(=O)Nc2cccnc2)c1	i
41	Cc1ccsc1/C=C(\C#N)c1nc2ccccc2s1	i
42	O=C(Nc1ccccc1)OCc1ccccc1I	7%
43	CN1CCn2c1nc(N1CCCCC1)nc2=O	i
44	CCOC(=O)c1cnc(SCc2ccc(C)cc2)nc1N	i
45	COC(=O)c1cccc(NC(=O)c2ccc(NC(=O)c3ccco3)cc2)c1	i
46	O=S(=O)(c1ccc(NC(=S)Nc2ccc(F)cc2F)cc1)N1CCOCC1	i
47	COC(=O)c1ccc(NC(=O)c2ccc3c(c2)C(=O)N(C)C3=O)cc1	i
48	COC(=O)c1ccccc1NC(=O)CN(Cc1ccccc1)S(C)(=O)=O	i
49	CCN(CC)CCC(=O)c1ccc(OC(C)C)cc1	i
50	Cc1cc(Cl)ccc1OCC(=O)n1cnc2ccccc21	i
51	COc1ccc(NS(=O)(=O)c2ccc(Br)s2)cc1OC	1%
52	Cc1cc(OCC(=O)NCC(C)C)cc(C)c1Br	i
53	Cc1ccc(C(=O)NCCC23CC4CC(CC(C4)C2)C3)cc1	0.18µg/mL*
54	COc1ccccc1CNc1nc2ccccc2n1C(C)C	5%
55	CCOC(=O)c1c(-c2ccc(F)cc2)csc1NC(=O)c1c(-c2ccccc2)noc1C	7%
56	COc1ccc(Br)cc1S(=O)(=O)N1CCN(c2ccccc2Cl)CC1	1%
57	COc1ccccc1N1CCN(C(=O)C23CC4CC(CC(C4)C2)C3)CC1	i
58	Cc1cc(Br)cc(C)c1OCC(=O)Nc1ccccc1C(=O)Nc1ccccc1	1%
59	O=C(O)c1cc(S(=O)(=O)NCc2ccco2)c(Cl)cc1N1CCCCC1	i
60	COc1cc(OC)cc(C(=O)N2CCC(C(=O)Nc3ccc(Oc4ccccc4)cc3)CC2)c1	19%

Rewritten with each value named: two of the compounds above.
(54) COc1ccccc1CNc1nc2ccccc2n1C(C)C
  Mtb H37Rv: 5%

(55) CCOC(=O)c1c(-c2ccc(F)cc2)csc1NC(=O)c1c(-c2ccccc2)noc1C
  Mtb H37Rv: 7%

The results go on.
nr	SMILES	Mtb H37Rv
61	CCOc1cc(C(=O)Nc2ccc(Br)c(C)n2)cc(OCC)c1OCC	2%
62	Cn1c(=O)c2c(-c3ccccc3Cl)n(-c3ccccc3N)cc2n(C)c1=O	i
63	CCCCNC(=O)NC(C(=O)OC)C12CC3CC(CC(C3)C1)C2 (stereo not drawn)	i
64	O=C(Nc1ccc2c(c1)OCO2)c1ccc(COc2ccc3c(c2)CCC3)o1	?
65	CC(=O)Nc1ccc(S(=O)(=O)N(CCc2ccccc2)CC(=O)O)cc1	i
66	O=C(Cc1c(F)cccc1Cl)NNC(=S)NCc1ccco1	i
67	CCOc1cc(C(=S)N2CCCC2)cc(Br)c1O	i
68	CCCCc1ccc(NC(=S)NNC(=O)c2ccccc2F)cc1	i
69	COc1cc(Cl)c(C)cc1NC(=O)c1c(OC)cccc1OC	i
70	CCOC(=O)C(=O)Nc1ccc2c(c1)OCCO2	6%
71	COc1ccc(N2CCN(C(=O)c3c(-c4c(F)cccc4Cl)noc3C)CC2)cc1	i
72	COc1ccc(OC)c(S(=O)(=O)Nc2ccc(C)c(C)c2)c1	i
73	Cc1ccc(S(=O)(=O)Cc2cccc(C(=O)N3CCCC3)c2)cc1	i
74	Cn1c(CNC(=O)c2ccc(Cl)cc2)nnc1SCC(=O)N1c2ccccc2Sc2ccccc21	i
75	O=C(NCCO)c1ccc(CSc2nc3sc4c(c3c(=O)[nH]2)CCC4)cc1	i
76	CCC1CCCCN1C(=O)c1ccc(C)c(C)c1 (stereo not drawn)	i
77	COC(=O)c1ccc(NC(=S)NCCSc2ccc(C)cc2)cc1	i
78	CC1=C(C(=O)Nc2ccccn2)C(c2ccc3c(c2)OCO3)C2=C(CC(c3cccs3)CC2=O)N1 (stereo not drawn)	i
79	O=C(NC(=S)Nc1cc(Cl)ccc1Cl)c1ccc(Cl)cc1	i
80	Cc1ccc(N(CC(=O)Nc2ccc3c(c2)OCO3)S(=O)(=O)c2ccc(F)cc2)cc1	0%
81	Nn1c(SCc2cc(F)c(F)cc2Cl)nnc1-c1ccccc1	i
82	Clc1ccc(-c2csc3ncnc(NCC4CCCO4)c23)cc1 (stereo not drawn)	i
83	O=S1(=O)c2cccc3cccc(c23)N1Cc1cc2c(cc1Br)OCO2	2%
84	COC(=O)c1sccc1NC(=O)c1ccc(OC)cc1	i
85	Cc1nn(-c2ccccc2)c2sc(C(=O)NC(=S)NCc3cccnc3)cc12	i
86	CCOC(=O)c1ccc(NS(=O)(=O)N2CCOCC2)cc1	i
87	CCOc1ccc(C(=O)Nc2ccccc2N2CCN(C(=O)c3ccccc3)CC2)cc1[N+](=O)[O-]	i
88	CN(C)Cc1ccc(C(=O)Oc2ccc(C(C)(C)C)cc2)cc1	i
89	Cc1ccc(S(=O)(=O)N(CC(=O)Nc2ccc(CC#N)cc2)c2cccc(C(F)(F)F)c2)cc1	i
90	CCCCn1c2ccccc2c2nnc(SC(C)C(=O)OC)nc21 (stereo not drawn)	?
91	COc1ccc2c(c1)c(=O)oc1c(C)c(OC(C)=O)ccc12	48%
92	COc1ccc(CN2C(=O)CC(Cc3ccccc3)C2=O)cc1 (stereo not drawn)	1%
93	COCCCNC(=S)N1CCC(Cc2ccccc2)CC1	6%
94	Cc1c(C(=O)Nc2cccc([N+](=O)[O-])c2)csc1-c1ccccc1	i
95	COc1c(C)cc(Br)cc1C(=O)NC(=S)NCc1ccco1	i
96	O=C1c2cccc3c(Cl)ccc(c23)C(=O)N1c1ccc(I)cc1	i
97	O=C(Nc1cccc(-c2nnc(-c3ccccc3)o2)c1)C1CCCCC1	i
98	Clc1ccc(-n2c(SCc3ccc(Cl)cc3Cl)nnc2-c2ccncc2)cc1	20%
99	CN(C)CCCn1c(=N)n(CC(O)c2ccccc2)c2ccccc21 (stereo not drawn)	i
100	Cc1ccccc1NC(=O)CC(C(=O)O)N1CCOCC1 (stereo not drawn)	i
101	Cc1sc(NC(=O)c2cc(-c3ccccc3)nc3ccccc23)c(C(N)=O)c1C	i
102	O=c1[nH]c(CN2CCc3ccccc3C2)nc2ccccc12	i
103	COc1ccc(CNC(=O)c2sc3nc4c(c(C(F)(F)F)c3c2N)CN(C(C)=O)CC4)cc1	0%
104	CCC(C)(C)NC(=O)c1sc2ccccc2c1Cl	i
105	O=C(CN(c1ccc(F)cc1)S(=O)(=O)c1ccc2c(c1)OCCO2)Nc1ccccc1C(=O)N1CCOCC1	i
106	Cc1nc2ccccc2n1CCOc1ccc(Cl)cc1Cl	i
107	CCCNC(=O)C(=O)NC1CCC(C(C)(C)CC)CC1 (stereo not drawn)	i
108	COc1ccc(OC)c(NC(=O)c2ccc(CSCc3ccccc3)cc2)c1	i
109	CC(=O)Nc1ccc(S(=O)(=O)Nc2c(C)cccc2C(C)C)cc1	i
110	COc1ccccc1NC(=O)CN1CCCC1	i
111	O=C(O)CCc1nc2c3c4c(sc3ncn2n1)CCCC4	i
112	Cc1oc2c(c1C(=O)NC(Cc1c[nH]c3ccccc13)C(=O)O)CCCC2 (stereo not drawn)	i
113	O=C(Nc1ccc(Cl)cc1F)C1CC1	i
114	Cc1ccc(C(C)C)cc1OCCCCN1C(=O)NC(C)(C)C1=O	3%
115	COc1cc(OC)c(NC(=O)c2ccc(OC)c([N+](=O)[O-])c2)cc1Cl	i
116	N#Cc1ccc(C(=O)Nc2ccc(-c3nc4ccccc4s3)c(Cl)c2)c(F)c1	i
117	c1ccc(CN(Cc2nnc(-c3ccccc3)o2)c2ccccc2)cc1	i
118	NC(=O)c1ccccc1NC(=O)COc1cccc(Cl)c1	i
119	COc1ccccc1C(=O)Nc1nnc(SCC(=O)c2ccc3ccccc3c2)s1	i
120	Cc1cc(=O)oc2cc(OCC(=O)c3ccc(F)cc3)c(Cl)cc12	1%

Continued.
nr	SMILES	Mtb H37Rv
121	CC(C)NC(=O)c1ccccc1NC(=O)c1ccc(Br)cc1	i
122	O=C(NCCc1ccc(Cl)cc1)c1cnccn1	i
123	O=C(NCC1CCCO1)C1CCN(C(=O)c2ccc(Cl)cc2)CC1 (stereo not drawn)	i
124	Cc1cc(-c2nc3ccccc3o2)ccc1[N+](=O)[O-]	i
125	O=C(O)C1CCCCC1c1nc(=S)[nH][nH]1 (stereo not drawn)	i
126	Nc1nc(CSc2ncn(-c3ccccc3)n2)cs1	i
127	COc1ccccc1OCC(=O)Nc1ccccc1NC(=O)COc1ccccc1OC	i
128	CC1CCN(C(=O)c2ccc(NC(=O)c3ccccc3)cc2)CC1	i
129	CS(=O)(=O)N(CC(=O)Nc1ccc(F)c(F)c1)c1cccc(Cl)c1	i
130	CC(=O)Oc1ccc(-c2cccc(C(=O)N(C)c3ccc(O)cc3)c2)cc1	i
131	CC(NC(=O)c1ccccc1)C(=O)NC1=NCCS1 (stereo not drawn)	3%
132	O=C(NCc1ccccc1)c1cc(S(=O)(=O)N2CCOCC2)c(Cl)cc1Cl	i
133	Cc1cc(C)c2c(CC(=O)N(CCC#N)Cc3cccnc3)coc2c1	i
134	COc1ccc(-c2csc(NC(=O)c3ccc(C)cc3Cl)n2)cc1Br	i
135	COc1cc(C=O)cc(Br)c1OCC(=O)c1ccccc1	i
136	O=C(NC(=S)Nc1ccc(Cl)c(C(=O)O)c1)c1ccc(Br)cc1	i
137	CCOC(=O)CSc1nnc(-c2cccc(NC(=O)c3ccccc3Cl)c2)n1C	i
138	O=C(Nc1ccccc1C(=O)N1CCCCC1)c1cc(F)c(F)cc1Cl	i

Exported with each value named: 2 of the compounds above
134) COc1ccc(-c2csc(NC(=O)c3ccc(C)cc3Cl)n2)cc1Br
  Mtb H37Rv: i
135) COc1cc(C=O)cc(Br)c1OCC(=O)c1ccccc1
  Mtb H37Rv: i

Some of the compounds tested; rates above refer to the full screens.
